Assay outcomes as filed in PubChem BioAssay.
D2 potentiator: human D2 receptor positive allosteric modulation | DiscoveRx D2 beta-arrestin cells, luminescence, 90 min; 100% = 57 uM dopamine signal | potentiation, % (test concentration not listed) | 360,000 tested, 0.23% active; active = potentiation of 50% or more; inconclusive = 30% to 50%; inactive = 30% or less;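 also: compound concentration not given in the record; tested on top of an EC20 dose of dopamine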
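PathHunter beta-arrestin assay in DiscoveRx D2 cells. Compounds were added with an EC20 of dopamine (50 nM final) for 90 min at 37 deg C. Luminescence was read 1 h after detection reagent, with 57 uM dopamine as the EC100 control.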
gsp antag: antagonists of gsp mutant (McCune-Albright syndrome). 340,000 tested, 0.4% active. Potency, µM (top dose mostly 76.9 µM), without a hit: at the highest dose activity change, negative = inhibition, hits mostly inhibitors. gsp-mutant cells, cAMP HTRF, 30 min; control for the full effect not named in the record; active = falling curve of any shape with a large fitted effect; inconclusive = falling curve, mostly with a smaller effect; inactive = flat or rising curve; cell line not stated here;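 also: intracellular cAMP measured with PDE inhibitor Ro 20-1724 present during compound exposure; potency is read from the fitted curve at half-maximal effect; % is scaled to controls: 0 for no effect and ±100 for the full control effect; nearly all actives have a fitted effect of over 65% in size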
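HTRF cAMP read-out (cAMP-d2 plus anti-cAMP antibody-K in lysis buffer, 30 min RT). Before lysis, cells are exposed to compounds with […] for 30 min at 37C in DPBS containing Ca/Mg, BSA and Tween 20.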
D2 agonist: agonists of human D2 dopamine receptor (beta-arrestin) | DiscoveRx PathHunter D2 beta-arrestin, luminescence, 90 min; 100% = 57 uM dopamine signal | activation, % (test concentration not listed) | 360,000 tested, 0.084% active; in the data active = activation above about 40%; inconclusive = about 15% to 40%; inactive = below about 15%; also: compound concentration not given in the record; the text of the record calls up to 30% inactive
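Agonist mode: compounds alone added to overnight-plated D2 PathHunter cells for 90 min at 37 C, with 57 uM final dopamine (EC100) defining full response. Beta-arrestin recruitment detected by chemiluminescent reagent, read after 1 h at ambient temperature.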
CtBP-E1A blk: CtBP/E1A binding inhibition. AlphaScreen GST-E1A/His-CtBP binding, 1536-well; active compounds read low; control for the full effect not named in the record. AID 651724. activity change, % (test concentration not listed). 340,000 tested, 0.49% active; in the data active means activity change below about -65%; inconclusive means about -30% to -65%; inactive means above about -30%; also: % is scaled to controls: 0 for no effect and ±100 for the full control effect
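GST-E1A and His-tagged CtBP (125 nM each as 5X stock) were preincubated with pin-transferred compound for 2 h at 37 °C in the dark, then glutathione donor and nickel acceptor beads were added for 1 h before AlphaScreen reading.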
gsp agonist: agonists of gsp mutant (McCune-Albright syndrome); AID 624287; Potency, µM (series often up to 76.9 µM), for the others: top-dose activation (cAMP increase), most hits filed as activators; 340,000 tested, 0.13% active; gsp mutant cells, cAMP HTRF, 30 min; control for the full effect not named in the record; active = well fitted activation curve with a large enough effect; inconclusive = small, poorly fitted or top-dose-only effect, or another doubt; inactive = no such curve, though single readings can be large or run the other way; cell line not stated here;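 also: phosphodiesterase inhibitor Ro 20-1724 added with compounds to block cAMP breakdown; potency is read from the fitted curve at half-maximal effect; nearly all actives have a fitted effect of over 60% in size; about a fifth of the inactives were tested at one dose only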
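Cells stably selected in G418 were plated at 2000/well, grown 16-24 hr, then given compounds in DMSO with the PDE inhibitor […] (300 uM solution added) for 30 min at 37C; cAMP was read by HTRF.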
Six1-Eya2 blk: inhibitors of human Six1/Eya2 interaction; Q15475+O00167; AlphaScreen GST-Six1/His-Eya2 binding, biochemical; active compounds read low; control for the full effect not named in the record; activity change, % (test concentration not listed); 360,000 tested, 0.56% active; in the data active = activity change below about -65%; inconclusive = about -30% to -65%; inactive = above about -30%; also: % is scaled to controls: 0 for no effect and ±100 for the full control effect
Target sequence (O00167 whole entry, looked up): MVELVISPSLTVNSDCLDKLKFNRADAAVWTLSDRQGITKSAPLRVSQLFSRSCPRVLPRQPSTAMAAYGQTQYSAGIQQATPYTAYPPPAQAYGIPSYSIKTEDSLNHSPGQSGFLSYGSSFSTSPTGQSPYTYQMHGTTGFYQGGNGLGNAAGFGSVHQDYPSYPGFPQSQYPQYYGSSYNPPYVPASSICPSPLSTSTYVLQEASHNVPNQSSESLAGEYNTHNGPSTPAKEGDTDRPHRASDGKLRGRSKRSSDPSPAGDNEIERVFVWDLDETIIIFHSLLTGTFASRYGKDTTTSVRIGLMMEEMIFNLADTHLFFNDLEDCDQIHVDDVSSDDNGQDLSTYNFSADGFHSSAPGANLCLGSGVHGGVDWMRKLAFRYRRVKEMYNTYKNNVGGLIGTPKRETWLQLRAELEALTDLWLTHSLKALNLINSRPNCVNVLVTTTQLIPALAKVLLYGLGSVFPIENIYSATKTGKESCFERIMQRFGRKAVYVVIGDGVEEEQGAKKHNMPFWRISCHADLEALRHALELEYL
Target sequence (Q15475 whole entry, looked up): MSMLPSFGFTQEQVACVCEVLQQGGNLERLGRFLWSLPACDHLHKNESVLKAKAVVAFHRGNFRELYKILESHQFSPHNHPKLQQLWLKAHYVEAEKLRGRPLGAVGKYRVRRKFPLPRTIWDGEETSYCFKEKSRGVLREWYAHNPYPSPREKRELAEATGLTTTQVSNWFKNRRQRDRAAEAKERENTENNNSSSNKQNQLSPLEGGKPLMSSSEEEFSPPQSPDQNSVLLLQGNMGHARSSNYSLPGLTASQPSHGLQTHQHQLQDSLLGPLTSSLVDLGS
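Homogeneous AlphaScreen proximity assay pairing GST-Six1 with His-tagged Eya2 (added as 5X mix: 250 nM and 500 nM) in 50 mM Tris pH 8.0, 300 mM NaCl, 1 mM TCEP. Glutathione donor and nickel acceptor beads; 1 h, 37 °C, dark.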
Numbers without * were called inactive; ? = inconclusive; nt = no result given; [ ] = dose if it differs, or a comment.

#	SMILES	D2 potentiator	gsp antag	D2 agonist
1	CC(Nc1ccccc1N1CCCCC1)C(=O)N1CCc2ccccc21 (centres undefined)	-17	-5%	5.2
2	CN(CC(=O)Nc1ccc(Cl)c(C(F)(F)F)c1)C(=O)C1CC(=O)N(C2CCCC2)C1 (centres undefined)	-7	-3%	-5.8
3	COCCc1ccc(OC2(C)CCN(Cc3ccc(OC)c4ccccc34)C2)cc1 (centres undefined)	-9	nt	4.3
4	COc1ccc(NC(=O)CC2C(=O)N(c3cccc(OC)c3)C(=O)N2C2CCCCC2)cc1 (centres undefined)	-3	-6%	-0.2
5	CCOc1ccc(OCCSc2nc(N)cc(=O)[nH]2)cc1	0	-4%	-2.1
6	Cc1cnc(C(=O)OCC(=O)c2ccc(F)c(F)c2)cn1	-8	2%	-6.5
7	CC(=O)COC(=O)c1cc(-c2ccc(C)cc2)nc2ccccc12	-12	?	-5.6
8	Oc1ccccc1NCC(O)Cn1ccc2ccccc21 (centres undefined)	58*	-4%	14
9	O=C(NCc1cccnc1)Nc1ccc2c(c1)OCO2	-4	6%	-5.2
10	COc1ccc(N2CC(C(=O)Nc3nc4ccc(S(C)(=O)=O)cc4s3)CC2=O)cc1 (centres undefined)	-3	-8%	-4.4
11	Cc1ccc(S(=O)(=O)N2CCN(C(=O)CCNC(=O)c3ccccc3Cl)CC2)cc1	-15	1%	-3.3
12	CN(CC(=O)NC1CCCCCC1)S(=O)(=O)c1ccccc1	-14	10%	-0.6
13	COc1ccc(C(=O)NCC(c2ccco2)N2CCc3ccccc3C2)cc1 (centres undefined)	-23	-9%	-1.4
14	C[C@@H]1CN([C@H](C)CO)C(=O)CCCn2nncc2CO[C@@H]1CN(C)C(=O)c1ccc(N2CCN(C)CC2)cc1	0	nt	-3.2
15	CCN(C1CCCCC1)S(=O)(=O)c1cc(C)ccc1OC	10	-21%	1.6

#	CtBP-E1A blk	gsp agonist	Six1-Eya2 blk
1	-3	10%[15.4 µM]	-8
2	-12	-8%	7
3	1	nt	1
4	-4	-51%[inhibitor]	0
5	-1	-50%[inhibitor]	-2
6	2	16%[15.4 µM]	1
7	nt	-6%	13
8	?	-1%	?
9	9	18%	-1
10	-1	-8%	-2
11	-16	-1%	0
12	16	-1%	2
13	-7	-2%	-5
14	-3	-2%	-8
15	5	2%	7

Part of the list above, reformatted.
[10] COc1ccc(N2CC(C(=O)Nc3nc4ccc(S(C)(=O)=O)cc4s3)CC2=O)cc1 (centres undefined)
[11] Cc1ccc(S(=O)(=O)N2CCN(C(=O)CCNC(=O)c3ccccc3Cl)CC2)cc1

assay / entry	10	11
D2 potentiator	-3	-15
gsp antag	-8%	1%
D2 agonist	-4.4	-3.3
CtBP-E1A blk	-1	-16
gsp agonist	-8%	-1%
Six1-Eya2 blk	-2	0

Continuation:
#	SMILES	D2 potentiator	gsp antag	D2 agonist
16	CC(=O)NCCC(=O)N1CCc2c([nH]c3ccccc23)C1c1cccc(Cl)c1 (centres undefined)	1	-5%	-2.7
17	COc1ccc(NC(=O)c2cc(S(=O)(=O)N3CCc4ccccc43)cn2C)cc1	-5	-11%	1.9
18	COc1ccc(C2Nc3ccccc3C(=O)N2c2ccc(C)cc2)cc1COc1ccccn1 (centres undefined)	-27	-14%	-4.8
19	CC(=O)n1nc(-c2ccco2)nc1N	17	4%	-2.3
20	N=c1c(C(=O)NCC2CCCO2)cc2c(=O)n3ccccc3nc2n1Cc1ccco1 (centres undefined)	-1	0%	2.1
21	C[C@@H](C(=O)OCC(=O)c1ccc(F)c(F)c1)N1C(=O)C2CCCCC2C1=O (some centres undefined)	-7	3%	-8.5
22	Cc1cccc(N(CC(=O)N2CCCC2)S(=O)(=O)c2ccccc2)c1	2	2%	-0.8
23	O=C(c1ccco1)c1nc2c(n1O)CCCCC2	-3	1%	-0.7
24	N/C(=N\OCC(=O)Nc1ccccc1)c1nonc1N	-1	5%	-5.9
25	O=C(O)CSCC(=O)NCc1ccc(Cl)cc1Cl	7	12%	5.1
26	CC(C)C(=O)NC(=S)Nc1ccc(S(=O)(=O)N(C)Cc2ccccc2)cc1	-43	-20%	-3.0
27	CC(=O)N1CCC(C(=O)Nc2ccc3c(c2)CCC3)CC1	-9	1%	-2.8
28	O=C(Nc1ccc2c(c1)OCO2)C1CC(c2ccc(F)cc2)=NO1 (centres undefined)	1	16%	-3.4
29	Cc1cc(NC(=O)CSCC(=O)OCC(=O)Nc2ccc(OC(F)F)cc2)no1	-2	-4%	-1.8
30	O=C(CSc1ncnc2scc(-c3ccc(F)cc3)c12)c1ccc2c(c1)OCCO2	-20	-12%	1.0

#	CtBP-E1A blk	gsp agonist	Six1-Eya2 blk
16	1	-1%[15.4 µM]	-8
17	2	-47%[inhibitor]	-9
18	-6	10%[15.4 µM]	9
19	1	-2%	6
20	-8	12%[15.4 µM]	-3
21	-4	-25%	4
22	2	-4%	24
23	-5	10%	-2
24	9	15%[15.4 µM]	12
25	8	-24%	3
26	-7	-36%[inhibitor]	-6
27	6	?	6
28	-3	6%	2
29	-1	36%	2
30	-10	-2%	-11

Whole records, quoted from the list. Order of screens: D2 potentiator, gsp antag, D2 agonist, CtBP-E1A blk, gsp agonist, Six1-Eya2 blk
O=C(CSc1ncnc2scc(-c3ccc(F)cc3)c12)c1ccc2c(c1)OCCO2 is listed with -20, -12%, 1.0, -10, -2%, -11
CC(=O)NCCC(=O)N1CCc2c([nH]c3ccccc23)C1c1cccc(Cl)c1 (centres undefined) is listed with 1, -5%, -2.7, 1, -1%[15.4 µM], -8
Cc1cc(NC(=O)CSCC(=O)OCC(=O)Nc2ccc(OC(F)F)cc2)no1 is listed with -2, -4%, -1.8, -1, 36%, 2
N=c1c(C(=O)NCC2CCCO2)cc2c(=O)n3ccccc3nc2n1Cc1ccco1 (centres undefined) is listed with -1, 0%, 2.1, -8, 12%[15.4 µM], -3
Cc1cccc(N(CC(=O)N2CCCC2)S(=O)(=O)c2ccccc2)c1 is listed with 2, 2%, -0.8, 2, -4%, 24

Going on with the list.
#	SMILES	D2 potentiator	gsp antag	D2 agonist
31	CS(=O)(=O)c1cnc(-c2ccccc2)nc1-c1ccccc1Cl	0	-2%	-1.2
32	CCOC(=O)N1CCC2(CC1)C(C#N)=C(N)Oc1c2sc2nc(C)cc(C)c12	15	-25%	2.7
33	O=C1c2ccccc2C(=O)N1C1C=CC=CC=C1	-16	nt	-3.4
34	O=C(OCC(=O)N1CCc2ccccc2C1)c1ccc(O)cc1	1	-4%	-0.5
35	COc1ccc(CC(=O)NCC2(c3ccc(OC)c(OC)c3)CCOCC2)cc1	-6	1%	-1.4
36	COc1ccc(NC(=O)C2Cc3c(-c4ccccc4Oc4ccccc4)ccnc3O2)cn1 (centres undefined)	-3	nt	5.8
37	FC(F)(F)c1ccccc1NC(=S)NC1CCN(Cc2ccccc2)CC1	-34	7%	-2.6
38	COc1ccc2c(c1)c1c(n2C)[C@@H]2CC=C(CO)[C@@H](C1)N2C	-7	5%	2.0
39	CCOc1cc(/C=N/NC(=O)c2ccc(-c3csc(Nc4ccc(C)cc4)n3)cc2)ccc1OCC(=O)O	15	-10%	6.2
40	COC(=O)[C@H]1[C@@H](C)N(CCc2cc(OC)c(OC)c(OC)c2)C(=O)N[C@H]1c1ccccc1	2	1%	0.7
41	CCOc1ccc2[nH]c(=O)c(CN(CCN3CCOCC3)Cc3nnnn3C(C)(C)CC)cc2c1	-4	2%	-1.7
42	CC(C)Cc1nnc(NC(=O)CSc2ncn[nH]2)s1	-14	-15%	-4.7
43	CC(C)(C)c1ccc(C(=O)N2CCN(CCNC(=O)C(=O)NCc3ccc(Cl)cc3)CC2)cc1	5	2%	-2.1
44	CC(=O)Nc1ccc(NC(=O)C2CCN(C(=O)c3ccc([N+](=O)[O-])cc3)CC2)cc1	10	12%	5.5
45	Cc1ccc(C(=O)N(Cc2nnc(-c3ccc(Cl)cc3)o2)C2CC2)o1	-2	-12%	4.3

#	CtBP-E1A blk	gsp agonist	Six1-Eya2 blk
31	0	9%[15.4 µM]	10
32	-17	?	-14
33	-19	18%	1
34	3	-17%	8
35	9	5%[15.4 µM]	2
36	-9	nt	-12
37	-3	2%	0
38	6	nt	1
39	-23	13%	?
40	0	-22%	-5
41	-15	-21%	-3
42	3	26%	1
43	-9	7%	-5
44	3	25%	-1
45	-8	14%	1

Next part.
#	SMILES	D2 potentiator	gsp antag	D2 agonist
46	CCn1c2ccccc2c2nnc(SCCN3CCCCC3)nc21	-3	-2%	-0.2
47	CCOC(=O)C(C(=O)N(C)C)c1ncc(C(F)(F)F)cc1Cl (centres undefined)	-7	9%	0.3
48	CC1(C)Cc2ccccc2C(=C(C#N)C#N)N1	8	4%	0.0
49	Cc1ccc2c(c1)N=C(c1ccccc1)CC(C(Cl)Cl)=N2	-17	?	5.0
50	COCCOC(=O)c1[nH]c2c(c1C)C(=O)CC(c1ccc(OC)cc1)C2 (centres undefined)	1	-24%	-7.3
51	Cc1ccc(-c2cc(C(=O)O)n(-c3ccc(S(N)(=O)=O)cc3)n2)cc1	-4	8%	-1.0
52	O=C(C1CC1)N1CCN(c2ccc([N+](=O)[O-])cc2)CC1	-24	-7%	-4.0
53	CC(=O)c1ccc(NC(=O)CCn2c(=S)oc3ccccc32)cc1	-13	1%	-1.9
54	N/C(COc1ccccc1)=N\NC(=O)c1cccnc1Oc1ccccc1	-14	7%	-4.8
55	O=C(/C=C/c1ccccc1)N1CCN(c2ccccn2)CC1	-1	8%	-2.3
56	COc1ccccc1OCCNC(=O)C1CC(=O)N(Cc2ccccc2)C1 (centres undefined)	-4	14%	-2.3
57	CCc1ccc2[nH]cc(C(=O)N3CCCCCC3)c(=O)c2c1	-4	5%	-2.6
58	Cn1ncc2c(NNC(=O)c3ccc(Cl)c(Cl)c3)ncnc21	-16	-10%	-5.0
59	CCCCOc1ccc(C(CC(=O)NC)C(=O)O)cc1 (centres undefined)	-7	0%	-3.5

#	CtBP-E1A blk	gsp agonist	Six1-Eya2 blk
46	-2	18%	-10
47	-6	-14%	2
48	8	21%	5
49	-1	20%[15.4 µM]	-11
50	-2	4%	-1
51	nt	-42%[inhibitor]	-1
52	nt	-36%[inhibitor]	24
53	nt	-4%	6
54	1	3%	-3
55	2	-33%[inhibitor]	-13
56	7	4%	-1
57	-6	-2%	10
58	-3	-4%	-1
59	9	-8%	5
